Rango-impB inh: qHTS Assay for Inhibitors of Rango (Ran-regulated importin-beta cargo) - Importin beta complex formation. Importin subunit beta-1 (Homo sapiens), Q14974. Rango CFP/YFP FRET sensor + importin beta, 45 min. Potency, µM (titrated, usually from 92.2 µM), for the others: at the top dose inhibition of complex formation. 340,000 compounds, 0.031% hits. AID 540263, 2011; active = rising FRET ratio curve, often small or poorly fitted; inconclusive = mostly compound fluorescence or quenching in the first reads; inactive = flat curves in all reads;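 also: potency is read from the fitted curve at half-maximal effect; 0% = DMSO wells and 100% = buffer wells lacking importin beta; nearly all actives have a fitted effect of over 15% in size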
Target sequence (Q14974 whole entry, looked up): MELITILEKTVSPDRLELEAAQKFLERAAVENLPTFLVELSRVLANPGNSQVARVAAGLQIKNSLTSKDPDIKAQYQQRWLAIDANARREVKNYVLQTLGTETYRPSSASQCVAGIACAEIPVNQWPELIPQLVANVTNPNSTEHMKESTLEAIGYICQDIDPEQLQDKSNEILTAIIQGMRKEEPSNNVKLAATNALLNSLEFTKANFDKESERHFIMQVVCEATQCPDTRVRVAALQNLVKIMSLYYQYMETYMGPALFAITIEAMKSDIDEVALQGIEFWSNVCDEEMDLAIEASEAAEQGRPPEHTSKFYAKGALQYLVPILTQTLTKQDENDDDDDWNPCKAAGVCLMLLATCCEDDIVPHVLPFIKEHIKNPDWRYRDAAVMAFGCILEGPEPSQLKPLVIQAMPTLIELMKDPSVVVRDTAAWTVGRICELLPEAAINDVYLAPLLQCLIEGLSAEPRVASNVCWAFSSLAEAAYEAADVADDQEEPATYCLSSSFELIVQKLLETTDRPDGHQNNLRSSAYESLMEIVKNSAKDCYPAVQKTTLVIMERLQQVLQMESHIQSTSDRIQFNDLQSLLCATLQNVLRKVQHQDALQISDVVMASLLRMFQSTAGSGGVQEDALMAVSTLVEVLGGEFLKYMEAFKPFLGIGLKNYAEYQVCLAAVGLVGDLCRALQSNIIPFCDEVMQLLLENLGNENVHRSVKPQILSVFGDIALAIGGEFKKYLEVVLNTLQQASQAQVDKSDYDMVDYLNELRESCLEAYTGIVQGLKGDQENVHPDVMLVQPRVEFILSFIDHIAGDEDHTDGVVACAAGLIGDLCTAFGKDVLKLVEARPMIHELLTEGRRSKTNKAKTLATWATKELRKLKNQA
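FRET biosensor Rango (snurportin 1 IBB between N-terminal EYFP and C-terminal Cerulean), 50 nM in PBS/1 mM DTT/0.02% Tween-20/0.1% BSA, preincubated 5 min RT with compound; 0.125 microM importin beta added, 45 min RT, CFP/YFP FRET ratio read.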
miR-21 reporter: qHTS Assay for Modulators of miRNAs and/orActivators of miR-21 | HeLa miR-21 FLuc reporter, luciferase, 48 h | Potency, µM (top dose mostly 38.3 µM), inactives show at the highest dose reporter change, positive = more light | 340,000 tested, under 10 active | AID 2288, 2010; active = well fitted rising curve with a large enough effect; inconclusive = small, poorly fitted or top-dose-only effect; inactive = no such curve, though single readings can be large or run the other way;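 also: % of control where 0% means no effect; miR-21 action dims this reporter so a rising signal means less miR-21 action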
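Luminescence from a firefly luciferase reporter carrying a miR-21 binding site downstream, stably expressed under a CMV promoter in HeLa cells that make miR-21 endogenously, reports miRNA modulation after 48 h compound exposure up to approximately 40uM final.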
GLA inh pH 4.5: qHTS Assay for Inhibitors of Human alpha-Galactosidase at pH 4.5; activity change, negative = inhibition, % at 105 µM; 230,000 tested, under 10 active; Alpha-galactosidase A (Homo sapiens), P06280; purified enzyme, 4-MU-alpha-Gal fluorescence, pH 4.5; inconclusive = small, poorly fitted or top-dose-only inhibition, or a rising curve; inactive = flat fitted curve, though single readings scatter; no compound was filed as active;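 also: 0% = full activity with enzyme and -100% = basal without enzyme; dose as in the result columns while the protocol names 77 µM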
Rango dissoc inh: qHTS Assay for Inhibitors of RanGTP induced Rango (Ran-regulated importin-beta cargo) - Importin beta complex dissociation; Snurportin-1 (Homo sapiens) + GTP-binding nuclear protein Ran (Homo sapiens) + Importin …; Biochemical FRET Rango-importin beta, RanGTP-induced dissociation; Potency, µM (top dose mostly 46.1 µM), without a hit: at the top dose activity change, negative = inhibition; 340,000 compounds, 0.071% hits; AID 540253, 2011; active means falling FRET ratio curve, often poorly fitted, with flat reads before Ran was added; inconclusive means other falling curves, or compound fluorescence or quenching; inactive means flat or rising ratio curve;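 also: potency is read from the fitted curve at half-maximal effect; % of control where 0% means no effect; nearly all actives have a fitted effect of over 45% in size; -100% = wells without RanGTP and RCC1; the record marks most hits as doubtful in a second field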
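Rango/importin beta premix (0.1/0.25 uM final), PBS + 1 mM DTT + 0.02% Tween-20 + 0.1% BSA; cpd 5 min RT; FRET pre-read; + RanGTP-RCC1 (0.6 uM Ran, 2 mM GTP, 0.2 uM RCC1); 45 min RT; FRET post-read, ex 430, em 486/530 nm.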
* marks the source's active call; other numbers are inactive results; ? = inconclusive; / = no result given. Only part of the results is shown; the hit share may differ from the screen's.

Rango-impB inh	GLA inh pH 4.5	miR-21 reporter	Rango dissoc inh	Compound
2.2%	9	2%	?	CCOc1ccc2c(c1)C(c1cccs1)=NNC(c1cccnc1)=N2
-1.5%	/	0%	6%	O=C1C(=O)N(CCCO)C(c2ccccc2)/C1=C(\O)c1ccc(Br)cc1 (centres undefined)
0.5%	/	-2%	-9%	C(=N\NC1=NCCN1)/c1ccncc1
-3.0%	3	1%	21%	CCCC(=O)N1CCN(c2ccc(NC(=O)C(C)(C)C)cc2Cl)CC1
-0.2%	-7	-3%	5%	CCCC(=O)Nc1ccccc1-c1nnn(CC(=O)Nc2ccc(OC)cc2)n1
?	-10	13%	-8%	COc1cc(/C=C2/SC(=S)N(c3c(C)n(C)n(-c4ccccc4)c3=O)C2=O)ccc1O
-1.3%	/	-5%	7%	O=C(OCC(=O)N1CCc2ccccc21)c1ccccc1F
0.7%	-7	-1%	13%	Cc1c(C(=O)O)c(-c2ccccc2)nn1-c1ccccc1
?	/	6%	-1%	COc1cc(CN2CCCC(CO)(Cc3cccc(Cl)c3)C2)cc(OC)c1O (centres undefined)
-5.4%	/	3%	6%	O=C(CNC(=O)c1[nH]cnc1C(=O)N[C@@H](Cc1ccccc1)C(=O)OCc1ccccc1)OCc1ccccc1
?	/	-21%	-9%	O=C(Nc1c[nH]c2c(Cl)cccc2c1=O)N1CCN(c2ccccn2)CC1
1.0%	/	/	-1%	COc1ccc(/C=C2\SC(=O)N(CCNC(=O)CN3C(=O)NC4(CCCC4)C3=O)C2=O)cc1
4.4%	/	0%	-14%	CC(C)NC(=O)c1ccc2c(c1)N(CC(=O)NC1CCCCC1)C(=O)C(C)(C)O2
3.5%	-2	-5%	-2%	CCOc1ccc(S(=O)(=O)NCCSc2ccccc2)cc1
10%	/	/	-2%	CC(C)C[C@@H](CNCC(=O)[C@H](CC(C)C)NC(=O)c1[nH]cnc1C(=O)N[C@H](CN)CC(C)C)NC(=O)c1nc[nH]c1C(=O)N[C@@H](CC(=O)O)C(=O)O
-1.4%	-15	9%	12%	Cc1c(NC(=O)Nc2ccc(Cl)c(Cl)c2)c(=O)n(-c2ccccc2)n1C
0.7%	/	0%	0%	CC1CC(C)(C)N(C(=O)CN2C(=O)CCC2=O)c2ccccc21 (centres undefined)
0.8%	/	6%	-9%	Cc1cc(NS(=O)(=O)c2c(C(=O)N3CCOCC3)c(C)n(C)c2C)ccc1Br
7.2%	1	-36%	-2%	COc1ccc(-n2cnc3c(cnn3CCC#N)c2=N)cc1
3.8%	-2	2%	1%	CCN(CC)C(=O)C1CCCN(c2ccc([N+](=O)[O-])cc2)C1 (centres undefined)
-0.9%	-3	-5%	-16%	CCc1ccc(C2CC(c3ccc(Cl)cc3)=NNC2=O)cc1 (centres undefined)
-2.8%	-4	-2%	0%	COc1cc(C(=O)NCCC(C)C)ccc1OCc1ccc(Cl)cc1Cl
-2.2%	8	-3%	1%	COC(=O)CS(=O)(=O)c1cc(Br)cc2c1N(C(C)=O)CC2
-0.2%	6	-45%	-5%	COc1ccc(C)c2sc(=NC(=O)c3ccccc3)n(C)c12
1.9%	-4	-3%	-3%	CCOc1cc2[nH]c(=O)n(CCC(=O)NCc3ccc(OC)cc3)c(=O)c2cc1OCC
-0.6%	/	/	7%	C[C@H](CO)N1C[C@H](C)[C@@H](CN(C)C(=O)Nc2ccc(C(F)(F)F)cc2)Oc2ccc(NS(=O)(=O)c3cccs3)cc2C1=O
0.0%	0	-6%	2%	COc1ccc(-n2nc(C(=O)Nc3ccc4c(c3)OCO4)c3c4ccccc4n(C)c3c2=O)cc1
-0.2%	0	-49%	-2%	CN(C(=O)Nc1ccc(Cl)cc1Cl)C1CCCC1
-0.7%	/	/	-2%	CC(OC(=O)CCN=C1NS(=O)(=O)c2ccccc21)C(=O)Nc1ccccc1F (centres undefined)
-3.4%	/	4%	7%	Nc1nc(SCC(=O)Nc2ccc([N+](=O)[O-])cc2)[nH]c(=O)c1NC(=O)c1ccc(Br)cc1

The list goes on.
Rango-impB inh	GLA inh pH 4.5	miR-21 reporter	Rango dissoc inh	Compound
0.7%	-1	-1%	19%	CCOCCCNC(=O)C(c1ccccc1)N(Cc1ccc2c(c1)OCO2)C(=O)c1ccccc1O (centres undefined)
-0.3%	/	/	0%	Cc1ccc(C(=O)OCC(=O)Nc2ccc3[nH]c(=O)[nH]c3c2)o1
5.6%	-8	-5%	2%	CN1C=CC=C/C1=C(\C#N)c1nc2ccccc2[nH]1
0.6%	-3	4%	-1%	COC(=O)c1ccc(N2CCN(C)CC2)c(NC(=O)c2cccnc2)c1
1.0%	/	0%	-6%	CCOc1ccccc1N1CC(C(=O)Nc2ccccc2CC)CC1=O (centres undefined)
2.4%	/	/	7%	C[C@H]1CN([C@@H](C)CO)C(=O)c2cccc(NC(=O)Nc3ccc(F)cc3)c2O[C@@H]1CN(C)Cc1ccc(C(=O)O)cc1
-3.7%	5	-9%	-12%	COCCN(C(=O)Cn1nnc2ccccc21)C(C(=O)NC1CCCC1)c1cccc(OC)c1OC (centres undefined)
-1.3%	-1	-11%	36%	O=C(N/N=C/c1cccc(Br)c1)c1ccc(Cn2cc(Br)cn2)o1
-0.6%	/	0%	-9%	Cc1ccc(S(=O)(=O)Nc2ncccn2)cc1
-3.5%	/	/	0%	F[B-](F)(F)c1cnc2ccccc2c1
-2.2%	10	7%	-6%	O=C1c2ccccc2NC(c2ccc(F)cc2)N1Cc1ccco1 (centres undefined)
-1.4%	5	0%	19%	Cc1c(NC(=O)c2cc3c(=O)n4ccccc4nc3s2)c(=O)n(-c2ccccc2)n1C
5.3%	-5	1%	7%	C/C(=N\NC(=O)Cn1c(-c2ccccn2)nc2ccccc21)c1ccccc1
2.6%	-11	-48%	-3%	C/C(NC(=O)c1ccccc1)=C1/C(=O)CC2C1C2(C)C (centres undefined)
1.4%	-5	8%	6%	COc1ccc(C2NC(=O)NC(c3ccccc3)=C2c2nc3ccccc3s2)cc1 (centres undefined)
-3.5%	-2	6%	4%	COc1ccccc1N1CCN(C(=O)c2oc3ccc(Br)cc3c2C)CC1
-2.3%	2	-20%	-7%	FC(F)(F)c1nc2ccccc2nc1N/N=C\c1ccccc1
3.7%	0	0%	7%	CCN(Cc1ccccc1)Cc1c(C)[nH]c2c(C)c(C)ccc2c1=O
0.4%	/	4%	-9%	COc1cc(C(=O)Nc2c(C(=O)O)[nH]c3ccccc23)cc(OC)c1OC
0.3%	3	-20%	1%	CC12CCC(C(=O)Nc3ccc4c(c3)OCCO4)(OC1=O)C2(C)C (centres undefined)
0.3%	/	4%	-10%	O=C(NCC1CCCO1)c1ccc2c(c1)N(Cc1ccccc1)C(=O)CS2 (centres undefined)
?	/	/	?	COc1ccc(C(=O)NCCNc2nc3c(C)cccc3cc2C#N)cc1
3.7%	-2	-3%	-14%	C/C(CCc1ccccc1)=N\NC(=O)C(=O)Nc1cccc(Cl)c1
-2.0%	-2	-5%	11%	Cc1ccc2c(c1)C(C)(C)[C@]1(C)NC(=O)CCN21
-1.2%	-6	-21%	-3%	Cc1ccc(Cc2cc(-c3ccc(C)cc3)n[nH]c2=O)cc1
0.5%	0	-8%	-5%	Cc1cc(C)c(C)c(OCCOCCN2CCOCC2)c1
0.8%	?	2%	-7%	CC1CC(C)CN(CC(=O)N2c3ccccc3CCc3ccccc32)C1 (centres undefined)
-3.7%	/	3%	8%	COc1cc(NC(=O)CN(C)S(=O)(=O)c2ccc3c(c2)CC(C)N3C(C)=O)cc(OC)c1OC (centres undefined)
2.6%	-16	-1%	-1%	CC12CN3CC(C)(CN(C1)C3c1ccccc1)C2O (centres undefined)
-0.3%	-5	-31%	-13%	COCCNC(=S)N/N=C(\C)c1ccc(Cl)c(Cl)c1

(more compounds)
Rango-impB inh	GLA inh pH 4.5	miR-21 reporter	Rango dissoc inh	Compound
2.5%	13	-13%	2%	COc1ccc(OC)c(N(CC(=O)Nc2ccc3c(c2)OCCO3)S(C)(=O)=O)c1
-4.7%	-8	1%	0%	CCCCCCCCNC(=O)c1cccnc1SCC(=O)Nc1ccccc1OC
-0.2%	4	-21%	3%	O=C(c1ccccc1)c1ccc2nc[nH]c2c1
?	/	0%	-24%	CN(C)C(=O)CN1C(=O)c2cccc3cccc1c23
-3.1%	/	/	24%	Cc1ccc(-n2nnnc2-c2ccccc2Br)cc1
-1.5%	/	8%	-1%	COc1ccc2nc(C)cc(Nc3ccccc3O)c2c1
1.0%	6	0%	12%	O=C1c2cccnc2C(O)N1C1CCCCC1 (centres undefined)
-1.4%	/	/	0%	O=C(O)C1=C[C@@H](c2ccc(Br)cc2)C[C@@H](OCCCCO)O1
-1.4%	/	-36%	6%	COc1ccc(-n2cnc3cc(C(=O)N4CCOCC4)ccc32)cc1
2.2%	2	1%	13%	COc1ccc(NC(=O)/C(C#N)=C/c2ncc([N+](=O)[O-])n2C)c(OC)c1
-0.5%	0	-2%	-1%	CN(NC(=O)c1ccccc1Cl)c1ncc(C(F)(F)F)cc1Cl
-0.6%	1	-4%	19%	O=C(NC(Cc1ccccc1)c1nc2ccccc2[nH]1)C1CC(=O)N(c2ccc3c(c2)OCCO3)C1 (centres undefined)
-1.4%	-8	-1%	-26%	CCOC(=O)c1cc(=O)c2ccc(OCC(=O)Nc3ccc(F)cc3)cc2o1
-3.0%	/	-4%	-5%	CCOC(=O)CN1N=C(c2ccc(Cl)cc2)CCC1=O
1.9%	2	4%	37%	O=C(CN1CCCC1)N1c2ccccc2C=Cc2ccccc21
-2.3%	7	-3%	38%	CN(CC(=O)Nc1ccc(S(N)(=O)=O)cc1)c1ccccc1
0.0%	/	/	-15%	O=C1NC(=O)/C(=C/c2ccco2)N1
0.8%	-4	28%	10%	COc1ccc(C(CCNCc2ccc(N(C)C)cc2)C(C)C)cc1 (centres undefined)
3.4%	/	/	2%	CCN1C(=O)[C@H]2[C@@H](c3ccc(-c4ccc(C(C)=O)cc4)cc3)N[C@@](C)(C(=O)OC)[C@H]2C1=O
0.4%	2	-1%	-12%	CC(CC(=O)O)n1nnc2ccccc21 (centres undefined)
-1.6%	-4	-1%	-9%	CS(=O)(=O)Nc1ccc(S(=O)(=O)Nc2nccs2)cc1
-4.0%	/	/	7%	COc1cccc(OC)c1OC(=O)c1ccccc1
3.3%	/	-5%	0%	O=C(c1ccccc1)c1ccc(OCC(O)CNCc2ccc(Cl)cc2)cc1 (centres undefined)
-0.6%	/	/	-12%	CCCN(C(=O)Cc1coc2cc(OC)ccc12)C1CCS(=O)(=O)C1 (centres undefined)
2.0%	-10	27%	14%	O=C(CSc1nc2ccc([N+](=O)[O-])cc2[nH]1)NC1CCCCCC1
?	-8	-3%	?	COc1cc(/C=C(/C#N)c2nc3ccccc3[nH]2)ccc1OCC(=O)Nc1ccccc1C
-0.6%	3	-11%	27%	CN(C)c1ccc(/C=N/O)cc1
-0.1%	/	1%	-8%	CCc1ccc(/C=C2/Sc3ccccc3N(CC(=O)NCCCN3CCOCC3)C2=O)cc1
-0.1%	-6	-1%	-2%	O=C(CNCCO)N1CCc2ccccc21

5 entries out of the list above, arranged by the value under Rango dissoc inh, falling:
smiles | Rango dissoc inh
O=C1c2cccnc2C(O)N1C1CCCCC1 (centres undefined) | 12%
COc1ccc(-n2cnc3c(cnn3CCC#N)c2=N)cc1 | -2%
CCOc1cc2[nH]c(=O)n(CCC(=O)NCc3ccc(OC)cc3)c(=O)c2cc1OCC | -3%
O=C1c2ccccc2NC(c2ccc(F)cc2)N1Cc1ccco1 (centres undefined) | -6%
CC1CC(C)CN(CC(=O)N2c3ccccc3CCc3ccccc32)C1 (centres undefined) | -7%

Screening results (PubChem)
